Screening results as filed in PubChem.
PKD1 inh – inhibitors of human PKD1 kinase, biochemical, fluorescence polarization. PKD1 kinase fluorescence polarization assay. actives 0.056% (n = 200,000). AID 797, 2007. inhibition, %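 (about 10 µM by stock and volumes)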. Serine/threonine-protein kinase D1 (Homo sapiens), Q15139;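 active = inhibition of 50% or more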;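 note: controls were vehicle for no effect and a reference inhibitor for full effect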
INS promoter inh – inhibitors of insulin promoter-driven GFP, primary screen, imaging, TRM-6 cells (human fetal islet line), eGFP reporter, cell count. AID 1273, 2008. reporter expression induced with tamoxifen. actives 0.9% (n = 130,000). inhibition, % at 2 µM;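 active = inhibition above the mean plus 3 SD, with well images judged a real hit on visual review, cut at about 60% in these data, passing the limit was not always enough; inconclusive = inhibition over the cutoff but images rejected on review; inactive = inhibition not above the cutoff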
GALR2 agonist – GALR2 receptor agonists, primary screen, cell-based; AID 803, 2007; GALR2-expressing cells, agonist activation read-out; Galanin receptor type 2 (Homo sapiens), O43603; activation, %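 (tested at 5 µM)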; actives 0.48% (n = 140,000);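 active = above mean plus 3 SD of all compounds, about 5% in these data, not always enough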;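 note: 0% = vehicle buffer wells and 100% = reference agonist at full effect; tested in CHO reporter cells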
Target sequence (O43603 whole entry, looked up): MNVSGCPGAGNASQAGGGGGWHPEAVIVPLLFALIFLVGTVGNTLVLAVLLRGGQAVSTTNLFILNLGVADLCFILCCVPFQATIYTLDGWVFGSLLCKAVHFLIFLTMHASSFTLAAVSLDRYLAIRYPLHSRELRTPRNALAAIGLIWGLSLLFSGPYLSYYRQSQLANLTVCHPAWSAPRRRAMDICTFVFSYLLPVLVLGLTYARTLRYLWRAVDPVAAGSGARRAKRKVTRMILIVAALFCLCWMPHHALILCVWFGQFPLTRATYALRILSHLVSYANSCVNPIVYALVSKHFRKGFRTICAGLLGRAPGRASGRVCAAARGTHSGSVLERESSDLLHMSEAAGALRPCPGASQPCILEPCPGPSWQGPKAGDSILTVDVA
RGS16-Gao – modulators of RGS16 binding to Galphao, primary screen, biochemical, human proteins, multiplexed bead flow cytometry | Regulator of G-protein signaling 16 (Homo sapiens) + Guanine nucleotide-binding protein … | bead-based flow cytometry RGS16-Galphao binding, fluorescence; actives lie on both sides | binding response (% of control), % at 10 µM | actives 0.38% (n = 220,000) | AID 1441, 2008;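 active = below 25% or above 175%, edge rows of some plates excepted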;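 note: Galphao activated by GDP with aluminum fluoride before binding; 100% = wells without compound and 0% = beads without RGS; some results beyond the cut were filed as inactive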
Target sequence (O15492 whole entry, looked up): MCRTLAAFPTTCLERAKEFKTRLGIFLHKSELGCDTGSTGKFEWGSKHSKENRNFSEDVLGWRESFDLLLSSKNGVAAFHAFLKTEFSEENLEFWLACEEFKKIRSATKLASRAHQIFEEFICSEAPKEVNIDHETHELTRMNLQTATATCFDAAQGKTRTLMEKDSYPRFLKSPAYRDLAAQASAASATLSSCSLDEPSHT
Target sequence (P09471 whole entry, looked up): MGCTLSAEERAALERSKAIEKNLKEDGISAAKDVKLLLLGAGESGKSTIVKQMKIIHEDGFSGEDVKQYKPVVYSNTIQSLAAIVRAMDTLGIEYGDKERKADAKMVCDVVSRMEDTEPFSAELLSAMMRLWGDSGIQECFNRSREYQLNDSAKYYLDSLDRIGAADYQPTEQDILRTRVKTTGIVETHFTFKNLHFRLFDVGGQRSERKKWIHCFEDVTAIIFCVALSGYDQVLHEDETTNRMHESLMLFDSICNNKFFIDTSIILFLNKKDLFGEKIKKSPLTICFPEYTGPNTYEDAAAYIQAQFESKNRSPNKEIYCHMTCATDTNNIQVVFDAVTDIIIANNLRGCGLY
HSV replic up – enhancers of HSV replication in host cells, fold increase, host cell viability. HSV replication augmentation in cells. maximum fold increase. actives 0.005% (n = 220,000);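 active = peak rise of 1.5-fold or more in the series; inconclusive = self-fluorescent or not available for retest; tested in PC3 cells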;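 note: first round at 10 µM; read as green reporter fluorescence; hits show the peak of a series up to 25 µM; 1 = signal of infected wells without compound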
INS promoter inh cell count – recorded beside INS promoter inh, whose call it bears; normalized cell count, %; measured here: cell count, toxicity; reference of the scale not given here;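 cells exposed to compound for 48 h; stained nuclei by imaging scaled within each plate; lower means fewer cells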
HSV replic up primary fold – recorded beside HSV replic up, whose call it bears; fold increase; compound at 10 µM; measured here: primary screen fold increase 10 uM; tested in PC3 cells;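 GFP signal in the first replicate; 1 = infected wells without compound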
Numbers without * were called inactive; i = inactive; ? = inconclusive; . = no result given.

no.	mol	PKD1 inh	INS promoter inh	INS promoter inh cell count	GALR2 agonist	RGS16-Gao	HSV replic up	HSV replic up primary fold
1	CC(C)(C)c1ccc(C(=O)N2CCN(c3nc4ccccc4o3)CC2)cc1	-4	.	.	0.5	102	i	1
2	C=CCn1c(=O)c2ccccc2n2c(SCC(=O)Nc3sc(C(=O)N(CC)CC)c(C)c3C(=O)OCC)nnc12	-4	.	.	1.0	101	i	1
3	O=C(CCSCc1ccccc1Cl)NCc1cccs1	-5	-67	107	.	103	i	1
4	COc1cc(NC(=O)Cn2nc(C(F)(F)F)c3c2CCCC3)cc(OC)c1OC	-3	64	91	-1.1	96	i	0.88
5	COc1ccc(NC(=O)Cn2c(=O)n(Cc3ccco3)c(=O)c3ccccc32)cc1	-5	-471	76	-4.4	101	i	0.95
6	Fc1cccc(NC(=S)NCc2ccc(Cl)cc2)c1	-1	37	117	-0.2	104	i	0.98
7	Cc1ccc(C2=NC3(CCCC3)N=C2SCC(=O)Nc2ccc3c(c2)OCCO3)cc1	-9	38	68	-0.7	.	.	.
8	CCOc1ccc(=O)n(-c2ccccc2)n1	0	11	175	2.1	101	i	1
9	Cc1cc2nnc(SCC(=O)N3C(C)CCCC3C)n2c(N)n1 (configuration not stated)	-4	.	.	0.4	98	i	0.92
10	O=C(NCCc1ccccc1)C(=O)NCC1OCCN1S(=O)(=O)c1ccccc1 (configuration not stated)	.	.	.	.	96	i	1.1
11	CN(C)S(=O)(=O)c1ccc(C(=O)N(c2ccccn2)c2ccccn2)cc1	-6	-20	94	-0.8	101	i	0.87
12	O=C(NNS(=O)(=O)c1ccc(Br)cc1)c1csnn1	-8	.	.	.	101	i	0.91
13	CN1CCN(S(=O)(=O)c2ccc(N3CCN(C(=O)c4ccccc4)CC3)nc2)CC1	-6	-73	61	.	109	i	0.96
14	CCCn1nc(Oc2nc(NCC)nc(NC(C)C)n2)ccc1=O	-13	-38	165	-2.0	106	i	0.95
15	COc1cccc(C(=O)Nc2nnc(-c3ccc(F)cc3)o2)c1	.	.	.	.	97	i	1
16	O=C(COc1ccc(Cl)cc1)OCC(=O)N1CCCC1	0	12	91	-2.5	98	i	0.89
17	CCOc1ccc(NC(=S)NN2CCN(C)CC2)cc1	-4	20	88	-0.5	111	i	0.93
18	Cc1ccc(C(=O)N2CCn3c(C)ccc3C2C)cc1 (configuration not stated)	0	-29	102	.	108	i	0.92
19	O=C(NNS(=O)(=O)c1ccccc1[N+](=O)[O-])c1cccc([N+](=O)[O-])c1	-6	29	101	-1.4	103	i	0.88
20	CCO[C@@H]1OC(C(=O)N2CCN(C)CC2)=C[C@H](C(C)(C)C)[C@H]1CCCO	-2	.	.	.	99	i	0.69

Complete entries, looked up by structure.
Shown for CCOc1ccc(NC(=S)NN2CCN(C)CC2)cc1 → PKD1 inh: -4; INS promoter inh: 20; INS promoter inh cell count: 88; GALR2 agonist: -0.5; RGS16-Gao: 111; HSV replic up: i; HSV replic up primary fold: 0.93
Shown for C=CCn1c(=O)c2ccccc2n2c(SCC(=O)Nc3sc(C(=O)N(CC)CC)c(C)c3C(=O)OCC)nnc12 → PKD1 inh: -4; INS promoter inh: .; INS promoter inh cell count: .; GALR2 agonist: 1.0; RGS16-Gao: 101; HSV replic up: i; HSV replic up primary fold: 1

Further structures
no.	mol	PKD1 inh	INS promoter inh	INS promoter inh cell count	GALR2 agonist	RGS16-Gao	HSV replic up	HSV replic up primary fold
21	COc1ccc(C(=O)Oc2c(CN3CCOCC3)cc(Cl)c3cccnc23)cc1	2	-21	91	2.0	104	i	0.93
22	CC(=O)c1ccc(Cc2ccccc2)cc1	-7	.	.	.	95	i	0.97
23	CCOC(=O)CC1C(=O)NCCN1S(=O)(=O)c1ccc(F)cc1 (configuration not stated)	7	18	75	.	100	i	0.99
24	Cc1ccc(O)c(-c2cc(C(F)(F)C(F)F)[nH]n2)c1	-12	-35	133	-1.4	100	i	0.91
25	CCc1nc(N2CCN(C(=O)c3ccco3)CC2)c2c3c(sc2n1)CCCC3	-5	0	73	-1.7	96	i	0.99
26	COc1ccc(S(=O)(=O)N(C)CC(=O)Nc2ccc3c(c2)OCCO3)cc1OC	-12	28	104	-3.2	103	i	0.81
27	Cc1ccc(S(=O)(=O)N2CCOCC2)cc1C(=O)N1CCN(S(=O)(=O)c2cccs2)CC1	.	.	.	.	104	i	0.94
28	Cc1cccc2nc(C(F)(F)F)nc(=O)n12	-6	-73	76	-0.8	102	i	1
29	COC(=O)C1(Cc2ccccc2)NC(c2ccc(F)cc2)C2C(=O)N(C)C(=O)C21 (configuration not stated)	-8	-56	79	-1.2	-7.0*	i	1
30	CCCCN(CCCC)S(=O)(=O)c1ccc(C(=O)Nc2nnc(CSC)o2)cc1	-14	20	116	-0.4	96	i	1
31	Cc1ccc(NC(=O)COC(=O)/C=C/c2ccco2)cc1S(=O)(=O)N(C)C	5	.	.	-0.7	109	i	1.3
32	COc1ccc(CC(=O)NNC(=O)c2c(-c3ccccc3Cl)noc2C)cc1OC	.	.	.	.	104	i	0.9
33	Cc1ccc(-n2ncc3c(=O)[nH]c(SC(C)C)nc32)cc1	-14	.	.	1.1	100	i	0.92
34	CCOC(=O)NC(C(F)(F)F)(C(F)(F)F)P(=O)(c1ccccc1)c1ccccc1	-8	.	.	0.3	103	i	0.92
35	COc1ccc2nc(NC(=O)CSc3nc4cccnc4n3C)sc2c1	-12	-81	148	-2.1	59	i	0.83
36	COc1ccc(C2=CC(=O)C=CC2=O)cc1	.	.	.	.	67	i	0.98
37	CN1CCc2c(sc3c2c(=O)n(-c2ccc(Cl)cc2)c2nncn32)C1	2	.	.	-1.9	102	i	0.91
38	CCCCCCC(=O)Nc1nc(C)c(-c2csc(Nc3cc(Cl)ccc3C)n2)s1	-1	24	167	-1.3	174	i	0.97
39	CCOC(=O)C1(Cc2ccc(OC)cc2)CCN(C(=O)c2cc3ccccc3[nH]2)CC1	-4	-36	113	.	96	i	0.94
40	CCOC(=O)c1c(-n2c(C)cc(C=O)c2C)sc2c1CCCC2	7	.	.	-2.1	95	i	0.99

Another view of 2 compounds above.
(15) COc1cccc(C(=O)Nc2nnc(-c3ccc(F)cc3)o2)c1
  PKD1 inh: .
  INS promoter inh: .
  INS promoter inh cell count: .
  GALR2 agonist: .
  RGS16-Gao: 97
  HSV replic up: i
  HSV replic up primary fold: 1

(26) COc1ccc(S(=O)(=O)N(C)CC(=O)Nc2ccc3c(c2)OCCO3)cc1OC
  PKD1 inh: -12
  INS promoter inh: 28
  INS promoter inh cell count: 104
  GALR2 agonist: -3.2
  RGS16-Gao: 103
  HSV replic up: i
  HSV replic up primary fold: 0.81

(more compounds)
no.	mol	PKD1 inh	INS promoter inh	INS promoter inh cell count	GALR2 agonist	RGS16-Gao	HSV replic up	HSV replic up primary fold
41	O=C(NCC1CCCO1)/C(=C\c1ccco1)NC(=O)c1ccc(Cl)cc1 (configuration not stated)	-2	.	.	.	57	i	0.95
42	O=C(O)CCC(=O)NN1C(=O)c2ccccc2NC1c1ccc(F)cc1 (configuration not stated)	.	.	.	.	111	i	0.94
43	Cn1c(SCC2CCCO2)nnc1-c1cccc([N+](=O)[O-])c1 (configuration not stated)	5	.	.	.	111	i	0.93
44	N#Cc1c2n(c(=S)n(-c3ccc(OC(F)F)cc3)c1=O)CCCCC2	7	50	63	.	100	i	1.1
45	CCCc1nc2ccccc2c(C(=O)OCC(=O)NCc2ccco2)c1CC	-1	13	123	-2.9	103	i	0.97
46	CCNC(=O)CCS(=O)(=O)c1ccc2ccccc2c1	-2	55	98	-2.1	104	i	0.73
47	Cc1ccc(C(=O)COC(=O)C(C)N2C(=O)C3C4C=CC(C4)C3C2=O)cc1 (configuration not stated)	-20	-42	25	0.7	108	.	.
48	COC(=O)c1ccc(NC(=O)CN2C(=O)CCC2=O)cc1	-7	.	.	-1.2	106	i	1
49	COc1cc(/C=C/c2nc3ccccc3s2)cc(OC)c1O	-3	14	137	.	99	?	.
50	CN(C)S(=O)(=O)c1cccc(NC(=O)COC(=O)COc2ccc(Br)cc2)c1	.	.	.	.	98	i	0.99
51	CCC(=O)c1ccc(OCC(=O)Nc2nn3cnnc3s2)cc1	-9	62	76	-1.1	102	i	0.99
52	CCOC(=O)N1CCC(NS(=O)(=O)c2cc3c(cc2Cl)NC(=O)CO3)CC1	3	.	.	-0.8	99	i	0.85
53	CCC(C)NC(=O)c1c(N)n(/N=C/c2cccs2)c2nc3ccccc3nc12 (configuration not stated)	-22	23	115	-0.4	103	i	0.82
54	Cc1ccccc1NC1=C(Cl)C(=O)N(C2CCCCC2)C1=O	2	-55	98	0.4	98	i	0.97
55	Cc1ccc(S(=O)(=O)N(C)CC(=O)OCC(=O)Nc2ccccc2)cc1	.	.	.	.	99	i	0.99
56	O=C(N/N=C\c1ccc(-c2ccc([N+](=O)[O-])cc2)o1)c1ccc2c(c1)OCO2	4	3	118	-1.0	102	i	1
57	Cc1ccc(C)c(N(CC(=O)NC2CCCC2)C(=O)c2cc3cc4cccc(C)c4nc3s2)c1	-1	12	98	-1.2	105	i	0.99
58	CCOC(=O)c1[nH]c2ccc(F)cc2c1NC(=O)CCN1CCOCC1	-10	7	92	-2.4	124	i	0.95
59	COc1ccccc1OCC(=O)NN=C(Cc1ccccc1)Cc1ccccc1	-1	-10	92	-2.9	105	i	0.79
60	CC(C)(C)c1cc(-n2ccnc2)n2ncc(-c3ccc(Cl)cc3)c2n1	-16	.	.	-0.8	99	i	1

New compounds follow:
no.	mol	PKD1 inh	INS promoter inh	INS promoter inh cell count	GALR2 agonist	RGS16-Gao	HSV replic up	HSV replic up primary fold
61	CC(C)(C)NC(=O)CSc1nnc(NC(=O)CCn2cnc3ccccc3c2=O)s1	-7	31	135	-2.3	96	i	1.1
62	Cc1cc(C)n(-c2cc(C(C)(C)C)nc3c(-c4ccc(Cl)cc4)cnn23)n1	-8	-31	70	-0.7	61	i	0.87
63	N#Cc1nc(COc2ccc(Br)cc2)oc1N1CCCCCC1	5	.	.	-2.7	104	i	0.99
64	Cc1c(C#N)c2ccccc2n1CC(=O)NCCc1c[nH]c2ccccc12	-9	.	.	-2.1	104	i	0.88
65	NC(=O)CSc1nnc(-c2ccccc2Br)n1-c1cccc(C(F)(F)F)c1	-3	-20	91	-0.9	98	i	1
66	CC(=O)/C(C#N)=C1\NC(=O)C(Cc2ccc(C)c(C)c2)S1 (configuration not stated)	6	7	135	-1.1	102	?	.
67	CCOc1ccc(NC(=O)C[n+]2ccc(N(C)C)cc2)cc1	16	33	90	-1.8	86	i	0.91
68	O=c1c2ccccc2nc(-c2cccs2)n1-c1ccc2ccccc2c1	-3	36	63	-1.2	102	i	1.1
69	O=C(O)CCC(=O)Nc1ccc(-n2ccc(C(F)(F)F)n2)cc1	.	.	.	.	114	i	0.95

Shown as labelled records: part of the list above.
#39 CCOC(=O)C1(Cc2ccc(OC)cc2)CCN(C(=O)c2cc3ccccc3[nH]2)CC1
  PKD1 inh: -4
  INS promoter inh: -36
  INS promoter inh cell count: 113
  GALR2 agonist: .
  RGS16-Gao: 96
  HSV replic up: i
  HSV replic up primary fold: 0.94
#67 CCOc1ccc(NC(=O)C[n+]2ccc(N(C)C)cc2)cc1
  PKD1 inh: 16
  INS promoter inh: 33
  INS promoter inh cell count: 90
  GALR2 agonist: -1.8
  RGS16-Gao: 86
  HSV replic up: i
  HSV replic up primary fold: 0.91
#15 COc1cccc(C(=O)Nc2nnc(-c3ccc(F)cc3)o2)c1
  PKD1 inh: .
  INS promoter inh: .
  INS promoter inh cell count: .
  GALR2 agonist: .
  RGS16-Gao: 97
  HSV replic up: i
  HSV replic up primary fold: 1
#25 CCc1nc(N2CCN(C(=O)c3ccco3)CC2)c2c3c(sc2n1)CCCC3
  PKD1 inh: -5
  INS promoter inh: 0
  INS promoter inh cell count: 73
  GALR2 agonist: -1.7
  RGS16-Gao: 96
  HSV replic up: i
  HSV replic up primary fold: 0.99
